Assay outcomes from PubChem BioAssay.
RanGTP-Imp inh: disruptors of Ran-importin-beta complex formation – biochemical, FRET, CFP-Ran, YFP-importin-beta, homogeneous, primary screen; cell-free CFP-Ran/YFP-importin-beta FRET ratio; inhibition, % (test concentration not listed); 300,000 tested, 1.1% active; AID 2216;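 active means most replicates above 15%; inconclusive means exactly half above 15%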;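 further: 0% = DMSO wells and 100% = Ran loaded with GDP instead of GTP; wells of about 40 µL received 100 nL stock; the first replicate is given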
Vif TR-FRET: HIV-1 Vif–A3G interaction blockers – biochemical, TR-FRET, GST-Vif 1-94, biotin-A3G peptide, dose response retest, primary screen (AID 1117319); 260,000 tested, 0.57% active; inhibition, %; hits with a dose series show IC50 in µM; TR-FRET GST-Vif / biotin-A3G peptide binding; higher % means a stronger effect; test concentration not given here; strong numbers were not always called active;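 active means above the screen mean plus three standard deviations and confirmed in dose response; inconclusive means results disagree or hit not tested in dose response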;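 further: Vif residues 1-94 fused to GST binding biotinylated APOBEC3G peptide 110-148; 0% = full assay without inhibitor and 100% = GST in place of GST-Vif; retest series ran down from 100 µM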
ALR inh: human ALR oxidase inhibition via reduced H2O2; inhibition, % (test concentration not listed); 290,000 tested, 3.8% active; purified ALR, DTT oxidation, H2O2 HRP-luminol luminescence; AID 485317; P55789;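 active means mean and each replicate at 75% or more; inconclusive means only one of the two met; inactive means neither met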;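 further: stock transfer was 7.5 nL into about 7.5 µL; 0% = neutral wells and 100% = wells with inactivated enzyme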
Beta2AR agonist: agonists of human beta-2 adrenergic receptor inducing internalization | P07550 | Am2.2-beta2AR cells, FAP receptor internalization, flow cytometry; reference of the scale not given here | response, % (no concentration beside the values) | 340,000 tested, 0.43% active;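 active means response above a set limit, near 3 SD of response in nonfluorescent compounds, cut at about 42% in these data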;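 further: stock transfer was 100 nL into about 11 µL; a reference agonist was the positive control; negative values mostly stem from fluorescent compounds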
LANA-H2B inh: blocks KSHV LANA binding to histone H2A/H2B | Q9QR71 | inhibition, % (test concentration not listed) | cell-free LANA-H2A/H2B peptide, fluorescence polarization | 320,000 tested, 0.6% active | AID 2629; in the data active means inhibition mostly above about 10%, no sharp cut-off; inactive means mostly below about 6.7%;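 further: stock transfer was 7.5 nL into about 10 µL; 0% = median of vehicle wells and 100% = median of positive control wells; one replicate is shown; the record names a cut of 25% in any replicate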
Target sequence (Q9QR71 whole entry, looked up): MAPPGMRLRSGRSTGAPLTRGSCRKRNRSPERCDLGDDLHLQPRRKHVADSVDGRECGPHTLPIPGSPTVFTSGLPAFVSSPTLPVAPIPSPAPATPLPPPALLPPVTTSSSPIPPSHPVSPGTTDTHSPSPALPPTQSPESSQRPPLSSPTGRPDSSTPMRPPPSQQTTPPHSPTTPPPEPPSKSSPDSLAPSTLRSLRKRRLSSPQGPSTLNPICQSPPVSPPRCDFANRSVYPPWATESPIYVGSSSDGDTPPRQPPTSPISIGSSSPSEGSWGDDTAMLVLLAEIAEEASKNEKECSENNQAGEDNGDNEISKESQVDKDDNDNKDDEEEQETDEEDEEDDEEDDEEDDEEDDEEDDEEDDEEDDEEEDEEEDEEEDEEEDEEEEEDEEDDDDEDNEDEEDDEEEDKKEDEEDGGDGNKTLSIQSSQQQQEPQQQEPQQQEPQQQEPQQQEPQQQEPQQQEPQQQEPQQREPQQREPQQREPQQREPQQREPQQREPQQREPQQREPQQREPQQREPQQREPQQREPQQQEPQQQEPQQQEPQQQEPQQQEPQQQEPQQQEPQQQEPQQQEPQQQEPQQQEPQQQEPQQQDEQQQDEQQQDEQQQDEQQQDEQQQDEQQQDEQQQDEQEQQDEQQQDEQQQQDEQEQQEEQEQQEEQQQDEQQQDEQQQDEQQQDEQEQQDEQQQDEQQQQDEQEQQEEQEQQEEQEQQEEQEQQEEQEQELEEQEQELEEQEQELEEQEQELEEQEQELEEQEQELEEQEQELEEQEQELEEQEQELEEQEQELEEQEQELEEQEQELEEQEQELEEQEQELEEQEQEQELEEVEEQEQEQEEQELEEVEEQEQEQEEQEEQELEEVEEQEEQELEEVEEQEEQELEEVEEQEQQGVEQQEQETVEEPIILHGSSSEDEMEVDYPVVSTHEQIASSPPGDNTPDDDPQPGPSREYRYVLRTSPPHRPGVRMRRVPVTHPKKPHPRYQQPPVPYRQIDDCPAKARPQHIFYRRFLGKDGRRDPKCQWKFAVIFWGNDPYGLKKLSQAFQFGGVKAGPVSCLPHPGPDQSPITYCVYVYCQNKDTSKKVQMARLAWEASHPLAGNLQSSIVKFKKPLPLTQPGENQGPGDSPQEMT
Calb FLC: C. albicans growth modulation with fluconazole; growth inhibition, % (concentration not given with the values); 300,000 tested, 0.57% active; C. albicans CaCi-2 (fluconazole-resistant clinical isolate) + fluconazole, Alamar Blue growth, 48 h;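 active means most replicates above 75%; inconclusive means exactly half above 75%; inactive means most below 75%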;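 further: all wells also contain fluconazole at 8 µg/ml as a sub-toxic cotreatment; 0% = median of DMSO wells and 100% = median of geldanamycin control wells; wells of about 8 µL received 7.5 nL stock; the first replicate is given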
HNF4A DNA FP: change in binding of human HNF4 alpha to DNA. activity change, % at 10 µM. 360,000 tested, 0.3% active. AID 1224865. HNF4a-FITC DNA binding, fluorescence polarization, 1 h. P41235; in the data active means activity change above about 30%, passing the limit was not always enough;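 further: controls were the assay level and a saturating level of protein; the project sought stronger binding though the title names inhibitors; some compounds called inactive have numbers as strong as hits; positive values seem to mean higher polarization but the record does not say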
Active calls of the source: *. Rows were taken by chance; any-hit rate near 6.3%.

CCc1cc2c(=O)n(Cc3ccco3)c(SCC(=O)N3CCCc4ccccc43)nc2s1 was read as RanGTP-Imp inh -1.0, Vif TR-FRET inconclusive, Beta2AR agonist 3.0, LANA-H2B inh 1.3, Calb FLC -5.6 and HNF4A DNA FP 1.1.
Screening Cc1cc(C)n(-c2nc3ccccc3c3nc(C)nn23)n1 returned RanGTP-Imp inh inconclusive, Vif TR-FRET -4.2%, ALR inh -2.0, Beta2AR agonist 5.2, LANA-H2B inh -0.5, Calb FLC 11.2 and HNF4A DNA FP 2.6.
For COc1cccc(-n2c(CNC(=O)OC(C)(C)C)n[nH]c2=S)c1 the results were RanGTP-Imp inh inconclusive, Vif TR-FRET -0.1%, ALR inh 89.1*, Beta2AR agonist -19.0, LANA-H2B inh 3.2, Calb FLC 3.1 and HNF4A DNA FP -3.9.
CCn1nc(C)c(CN2CCc3c([nH]c4ccccc34)C2c2ccc(F)c(OC)c2)c1C (configuration not stated) was read as RanGTP-Imp inh -3.2, Vif TR-FRET -14.5%, ALR inh 0.0, Beta2AR agonist 2.2, LANA-H2B inh 4.5, Calb FLC -8.7 and HNF4A DNA FP 3.3.
`COC(=O)CC1NCCNC1=O` (configuration not stated) gave RanGTP-Imp inh 6.8, Vif TR-FRET -5.1%, Beta2AR agonist 0.7, LANA-H2B inh 0.6, Calb FLC inconclusive and HNF4A DNA FP -3.0.
Cc1occc1C(=O)NNC(=O)COc1ccc(Br)cc1Br was read as RanGTP-Imp inh 0.2, ALR inh -13.1, Beta2AR agonist -6.1, LANA-H2B inh 1.9, Calb FLC 19.8 and HNF4A DNA FP 1.6.
Screening COc1ccc(CCN2C(=O)c3ccncc3C2=O)cc1OC returned RanGTP-Imp inh 1.3, Vif TR-FRET 31.1%, ALR inh -3.6, Beta2AR agonist 3.9, LANA-H2B inh -6.5, Calb FLC -3.5 and HNF4A DNA FP -0.9.
CC(=O)CC(=O)Nc1ncccn1 was read as RanGTP-Imp inh 11.2, ALR inh 1.6, Beta2AR agonist -11.2, LANA-H2B inh -2.0, Calb FLC 12.1 and HNF4A DNA FP -3.5.
For COc1ccc(NC(=O)CN(C)C(=O)Cc2coc3cc(C)c(C)cc23)cc1 the results were RanGTP-Imp inh 0.1, Vif TR-FRET 1.5%, ALR inh 0.2, Beta2AR agonist -7.1, LANA-H2B inh 2.9, Calb FLC 3.4 and HNF4A DNA FP 1.7.
For Cc1cc(C)c(N=Cc2c(O)c3ccccc3oc2=O)c(C)c1 the results were RanGTP-Imp inh 0.6, Vif TR-FRET -2.6%, ALR inh -2.1, Beta2AR agonist -0.8, LANA-H2B inh -3.6, Calb FLC 1.7 and HNF4A DNA FP 3.2.
For CC(c1ccccc1)N1CCC(CNC(=S)Nc2cccc(Cl)c2)C1 (configuration not stated) the results were RanGTP-Imp inh -0.1, Vif TR-FRET -4.6%, ALR inh 4.1, Beta2AR agonist 0.8, LANA-H2B inh 2.3, Calb FLC -0.5 and HNF4A DNA FP -1.2.
Screening c1cnc(Sc2ccc3nnnn3n2)nc1 returned RanGTP-Imp inh inconclusive, Vif TR-FRET -1.6%, ALR inh -10.6, Beta2AR agonist 6.7, LANA-H2B inh -3.3, Calb FLC 14.3 and HNF4A DNA FP -0.1.

3 compounds picked at random from those above:
For CC(c1ccccc1)N1CCC(CNC(=S)Nc2cccc(Cl)c2)C1 (configuration not stated) the results were RanGTP-Imp inh -0.1, Vif TR-FRET -4.6%, ALR inh 4.1, Beta2AR agonist 0.8, LANA-H2B inh 2.3, Calb FLC -0.5 and HNF4A DNA FP -1.2.
`COC(=O)CC1NCCNC1=O` (configuration not stated) gave RanGTP-Imp inh 6.8, Vif TR-FRET -5.1%, Beta2AR agonist 0.7, LANA-H2B inh 0.6, Calb FLC inconclusive and HNF4A DNA FP -3.0.
CCn1nc(C)c(CN2CCc3c([nH]c4ccccc34)C2c2ccc(F)c(OC)c2)c1C (configuration not stated) was read as RanGTP-Imp inh -3.2, Vif TR-FRET -14.5%, ALR inh 0.0, Beta2AR agonist 2.2, LANA-H2B inh 4.5, Calb FLC -8.7 and HNF4A DNA FP 3.3.

The results go on:
`CSc1nc(SC)c2c3c(oc2n1)COC(C)(C)C3` gave RanGTP-Imp inh 0.3, Vif TR-FRET 11.1%, ALR inh -13.2, Beta2AR agonist -5.0, LANA-H2B inh 5.3, Calb FLC 5.3 and HNF4A DNA FP -1.2.
Cc1cccc(-n2ncc3c2CCCC3NC(=O)CCN2CCCO2)c1C (configuration not stated) was read as RanGTP-Imp inh 1.0, Vif TR-FRET 5.0%, ALR inh -5.5, Beta2AR agonist -1.1, LANA-H2B inh 3.5, Calb FLC -11.3 and HNF4A DNA FP 2.3.
`CCCN1CCN(CCCNC(=O)CCN2C(=O)COc3ccccc32)CC1` gave RanGTP-Imp inh -4.1, ALR inh -10.3, Beta2AR agonist -1.1, LANA-H2B inh -0.2, Calb FLC -5.9 and HNF4A DNA FP -1.8.
CCCCN(C(=O)CSCc1ccc(C)cc1)c1c(N)n(CCC)c(=O)[nH]c1=O was read as RanGTP-Imp inh 0.7, ALR inh -4.6, Beta2AR agonist -1.4, LANA-H2B inh -1.0, Calb FLC 1.9 and HNF4A DNA FP 1.0.
`CCC(C)(C)NC(=O)C(c1ccc(F)cc1)N(Cc1cccc(OC)c1)C(=O)c1cnccn1` (configuration not stated) gave RanGTP-Imp inh -1.4, ALR inh -4.3, Beta2AR agonist -0.5, LANA-H2B inh -3.8, Calb FLC 30.5 and HNF4A DNA FP -1.9.
`O=C(/C=C/c1ccco1)c1cccc([N+](=O)[O-])c1` gave Vif TR-FRET 26.9%, Beta2AR agonist 3.4 and HNF4A DNA FP -4.5.
For Cc1ccc(NC(=O)c2cc3ccccc3oc2=O)cc1S(=O)(=O)N(C)C the results were RanGTP-Imp inh -0.5, Vif TR-FRET 3.8%, ALR inh -1.0, Beta2AR agonist -7.1, LANA-H2B inh -9.0, Calb FLC 4.3 and HNF4A DNA FP 0.9.
CCOc1ccc(CC(=O)NNC(=O)/C=C/C(=O)O)cc1 was read as RanGTP-Imp inh 0.8, Vif TR-FRET 31.1%, Beta2AR agonist -0.2, LANA-H2B inh -7.0, Calb FLC -16.3 and HNF4A DNA FP -0.4.
Screening Cc1ncc(CO)c(/C=N/NC(=S)Nc2ccc(F)cc2)c1O returned RanGTP-Imp inh -0.4, Vif TR-FRET 20.1%, ALR inh 67.7, Beta2AR agonist 4.5, LANA-H2B inh 2.4, Calb FLC 0.7 and HNF4A DNA FP 4.6.
For COc1ccc(/C=N/Nc2cc(C)nc(N)n2)cc1 the results were RanGTP-Imp inh 0.7, Vif TR-FRET inconclusive, ALR inh 0.4, Beta2AR agonist -2.2, LANA-H2B inh -0.1, Calb FLC -4.3 and HNF4A DNA FP 1.0.
CCC(C)NC(=O)c1oc2ccc(S(=O)(=O)N3CCC4(CC3)OCCO4)cc2c1C (configuration not stated) was read as RanGTP-Imp inh 3.3, ALR inh -2.6, Beta2AR agonist -3.2, LANA-H2B inh -1.1, Calb FLC -4.0 and HNF4A DNA FP -1.8.
For CC(=O)Nc1ccc(NS(=O)(=O)c2ccccc2)c2ccccc12 the results were RanGTP-Imp inh inconclusive, Vif TR-FRET -6.6%, ALR inh 4.0, Beta2AR agonist -3.0, LANA-H2B inh 4.1, Calb FLC 4.5 and HNF4A DNA FP -1.8.
O=C(CSc1ccccc1)N1CCCC(N2CCN(c3ccccc3)CC2)C1 (configuration not stated) was read as RanGTP-Imp inh 1.6, ALR inh 98.5*, Beta2AR agonist 0.7, LANA-H2B inh -3.6, Calb FLC 0.0 and HNF4A DNA FP 0.0.
O=S(=O)(c1cccc2cccnc12)N1CCN(c2ccc(F)cc2)CC1 was read as RanGTP-Imp inh -2.0, Beta2AR agonist -2.7, LANA-H2B inh 4.2, Calb FLC 13.8 and HNF4A DNA FP 4.1.
Screening CCOc1ccc(N2C(=O)CC(N(Cc3ccco3)C(=O)CC)C2=O)cc1 (configuration not stated) returned RanGTP-Imp inh -0.5, Vif TR-FRET 0.3%, ALR inh -15.0, Beta2AR agonist 7.3, LANA-H2B inh -1.2, Calb FLC -7.6 and HNF4A DNA FP 1.2.
`CCc1ccccc1N1CC23C=CC(O2)C(C(=O)OCC(C)C)C3C1=O` (configuration not stated) gave RanGTP-Imp inh -2.1, Vif TR-FRET 1.8%, ALR inh -9.0, Beta2AR agonist 3.2, LANA-H2B inh -1.6, Calb FLC -7.1 and HNF4A DNA FP -4.5.
For CC(C)OC(=O)c1cc2ccccc2oc1=O the results were RanGTP-Imp inh -2.3, Vif TR-FRET 1.0%, Beta2AR agonist 7.2, LANA-H2B inh -0.7, Calb FLC 14.7 and HNF4A DNA FP -1.6.
COc1cccc(C(=O)Nc2nnc(-c3ccccc3)s2)c1OC was read as RanGTP-Imp inh 1.0, ALR inh 1.3, Beta2AR agonist 19.2, LANA-H2B inh -8.0, Calb FLC 14.0 and HNF4A DNA FP -1.1.
`CCOC(=O)c1sc(NC(=S)NC(=O)c2ccc(OC)cc2)nc1C` gave RanGTP-Imp inh 3.5, ALR inh -0.1, Beta2AR agonist -2.9, LANA-H2B inh -0.5, Calb FLC 10.6 and HNF4A DNA FP -6.7.
O=C1S/C(=C\c2cccs2)C(=O)N1c1ccc(O)cc1 was read as RanGTP-Imp inh -1.5, Vif TR-FRET -10.4%, Beta2AR agonist -14.4, LANA-H2B inh 0.5, Calb FLC 1.4 and HNF4A DNA FP 0.5.
Cc1ccc(OCC(=O)Nc2ccc(N3CCOCC3)cc2)cc1 was read as RanGTP-Imp inh -0.4, Vif TR-FRET 3.2%, ALR inh -28.0, Beta2AR agonist -2.4, LANA-H2B inh 3.3, Calb FLC -17.8 and HNF4A DNA FP 3.9.
For O=C(OCCCCN1C(=O)c2ccccc2C1=O)c1ccc(Br)o1 the results were RanGTP-Imp inh 0.6, Vif TR-FRET 9.1%, ALR inh -3.0, Beta2AR agonist 2.9, LANA-H2B inh -1.1, Calb FLC 3.2 and HNF4A DNA FP 5.0.
Screening Cc1ccc(NC(=O)CN2CCC(C(=O)c3ccc(F)cc3)CC2)cc1 returned RanGTP-Imp inh 1.0, Vif TR-FRET 6.3%, ALR inh -12.5, Beta2AR agonist -1.8, LANA-H2B inh -0.1, Calb FLC 5.5 and HNF4A DNA FP 4.5.
`Cc1[nH]n(-c2ccccc2)c(=O)c1N=Nc1ccc(F)cc1` gave RanGTP-Imp inh -1.4, Vif TR-FRET 4.3%, Beta2AR agonist 9.8, LANA-H2B inh 5.2, Calb FLC -7.8 and HNF4A DNA FP -1.7.
Screening Cc1c(OCc2ccccc2)c(=O)ccn1Cc1ccc(F)cc1 returned RanGTP-Imp inh inconclusive, Vif TR-FRET 13.4%, ALR inh 1.2, Beta2AR agonist -0.1, LANA-H2B inh 0.7, Calb FLC -48.9 and HNF4A DNA FP 0.2.
COc1ccccc1Oc1coc2cc(O)ccc2c1=O was read as RanGTP-Imp inh 1.5, Vif TR-FRET 3.4%, ALR inh 1.2, Beta2AR agonist 1.2, LANA-H2B inh -4.5, Calb FLC -5.4 and HNF4A DNA FP 1.7.
COc1cccc(CN2CCNC(=O)C2CC(=O)NCCc2ccccn2)c1 (configuration not stated) was read as RanGTP-Imp inh -3.5, Vif TR-FRET -11.3%, ALR inh -7.7, Beta2AR agonist -2.2, LANA-H2B inh -4.2, Calb FLC -0.3 and HNF4A DNA FP 1.1.
COCCn1c(SCC(=O)NCc2ccccc2)nc2ccccc21 was read as RanGTP-Imp inh -0.3, Beta2AR agonist 11.5, LANA-H2B inh 6.3, Calb FLC 3.3 and HNF4A DNA FP 1.9.
`COc1cc(C2N(c3cccc(Cl)c3)C(=O)C3CCCN32)cc(OC)c1OC` (configuration not stated) gave RanGTP-Imp inh 4.7, Vif TR-FRET 4.0%, Beta2AR agonist -2.8, LANA-H2B inh 1.0, Calb FLC -3.1 and HNF4A DNA FP 5.8.
